# DUX4 inh – inhibitors of DUX4-driven ZSCAN4 reporter expression, primary screen, 293T cells, Gaussia and Italica luciferase | 0.8% of 37,000 active | AID 1224904, 2016 | activity change, negative = inhibition, % (no concentration beside the values) | 293T-iDUX4 ZSCAN4-Gaussia luciferase reporter, 24 h; hits give low values;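 active = -10% or lower and over 25 points stronger than a control reporter; inconclusive = -10% or lower with a smaller gap; inactive = above -10%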;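 note: 0% = median of neutral control wells and -100% = median of positive control wells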
# DUX4 inh difference – also measured in DUX4 inh; calls as there; Gaussia minus Italica difference, %; measured here: selective DUX4 reporter inhibition;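 worked out from the two reporters; negative = selective loss of the DUX4 reporter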
# DUX4 inh control – second read-out of DUX4 inh, no call of its own (marks repeat the call); activity change, negative = inhibition, %; measured here: Italica tet-on control reporter;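 0 = neutral control and -100 = positive control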
# Active calls of the source: *; ? = inconclusive; . = not tested or not shown; & = joins results of further samples. Some of the compounds tested; the hit share may differ from the screen's.
no.	DUX4 inh	DUX4 inh difference	DUX4 inh control	canonical_smiles
1	-2	-3	1.1	O=C(C1CCCCC1)N1C[C@@H]2[C@H](c3ccccc31)[C@@H](CO)N2CC1CCOCC1
2	-1	-2	0.7	C[C@H](NC(=O)[C@H]1N[C@H]2c3ccc(-c4ccncc4)c(=O)n3C[C@H]2[C@@H]1CO)c1ccccc1
3	2	-1	3.1	CCNC(=O)C[C@H]1CC[C@H]2[C@@H](COC[C@@H](O)CN2C(=O)C2CCCC2)O1
4	6	3	2.6	O=C(C[C@H]1C=C[C@H](NC(=O)c2ccc3c(c2)OCO3)[C@@H](CO)O1)NCc1ccc(F)cc1
5	2	-1	3.4	N#C[C@@H]1[C@H](c2ccc(-c3cccc(F)c3)cc2)[C@@H](CO)N1C(=O)NC1CCCC1
6	11	1	9.6	COC(=O)c1ccc(CN2CC(=O)N3[C@H](CO)[C@@H](c4ccc(-c5ccccc5)cc4)[C@H]3C2)cc1
7	-6	-7	1.3	CCNC(=O)Nc1ccc2c(c1)C(=O)N(C)[C@@H]1CC[C@H](CC(=O)NCc3ccccc3F)O[C@@H]1CO2
8	6&18	1&0	5.1&18	Cc1ccc(S(=O)(=O)N2[C@@H]3CNC[C@H]2C3c2ccc(-c3cccc(C)c3)cc2)cc1 (some centres not stated)
9	-3	-8	4.6	C/C=C/c1ccc([C@@H]2[C@@H](CN(CC)C(C)=O)N(C(=O)C3CC3)[C@H]2CO)cc1
10	0	-2	1.9	CCC(=O)N1CC[C@@H]2[C@@H](CO)N(C)c3ccc(-c4ccccc4F)cc3[C@@H]21
11	13	8	5.3	COCC(=O)N1CC2(CCN(C(C)=O)CC2)c2c([nH]c3cc(OC)ccc23)[C@H]1CO
12	-9	-23	14	CCCNC(=O)N1[C@@H](CO)[C@@H](c2ccccc2)C12CN(C(=O)C1CCCCC1)C2
13	3	1	2.3	COCC(=O)Nc1ccc2c(c1)C(=O)N(C)C[C@H](OC)[C@@H](C)CN(Cc1ccccn1)[C@@H](C)CO2
14	-2	-5	2.8	COC(=O)[C@H]1[C@H](CO)[C@H]2Cn3c(ccc(-c4ccccc4F)c3=O)[C@H]2N1Cc1ccncc1
15	?	.	.	O=C(C[C@@H]1CC[C@@H]2[C@H](COC[C@@H](O)CN2C(=O)Nc2ccc(Cl)c(Cl)c2)O1)NCc1ccc(F)cc1
16	7	-2	8.8	CN(C)C(=O)C[C@H]1CC[C@H]2[C@@H](COC[C@H](O)CN2CC2CCOCC2)O1
17	?	.	.	O=C(C[C@H]1CC[C@@H]2[C@H](COC[C@@H](O)CN2Cc2ccc(C(F)(F)F)cc2)O1)N1CCc2ccccc2C1
18	-3	-1	-2.8	CCCC#Cc1ccc([C@H]2[C@@H](C#N)N(S(=O)(=O)c3cccc(F)c3)[C@@H]2CO)cc1
19	2	0	2.6	CCCN1[C@@H]2c3ccc(-c4ccccc4OC)c(=O)n3C[C@H]1[C@H](CO)[C@H]2C(=O)N1CCOCC1
20	-1	3	-4.6	CO[C@H]1CN(C)C(=O)c2cc(NC(=O)c3cccc(F)c3)ccc2OC[C@@H](C)N(C)C[C@H]1C
21	1	-1	1.9	CNC[C@H]1Oc2c(N)cccc2C(=O)N([C@@H](C)CO)C[C@@H]1C
22	3	0	3.5	COc1ccc(C(=O)N2C[C@H]3[C@@H](c4ccccc42)[C@@H](CO)N3Cc2ccc(Cl)cc2)cc1
23	?	.	.	O=C(C[C@H]1CC[C@@H]2[C@H](COC[C@@H](O)CN2CCC(F)(F)F)O1)NCc1ccc(Oc2ccccc2)cc1
24	-4	3	-6.8	COc1ccc(S(=O)(=O)N[C@H]2CC[C@H](CCNC(=O)Cc3ccccn3)O[C@H]2CO)cc1
25	0	1	-1.3	C[C@@H](NC(=O)C[C@H]1C=C[C@H](NS(=O)(=O)c2cccc(F)c2)[C@@H](CO)O1)c1ccccc1
26	2	2	-0.3	C/C=C/c1ccc([C@@H]2[C@@H](CO)N(S(C)(=O)=O)[C@H]2CN(C)C(=O)CC)cc1
27	1	0	1.1	COCC(=O)Nc1ccc2c(c1)C(=O)N(C)[C@H]1CC[C@@H](CC(=O)O)O[C@H]1CO2
28	-3	-1	-2.3	O=C(NC1Cc2ccccc2C1)[C@H]1N[C@H]2c3ccc(C4=CCCCC4)c(=O)n3C[C@H]2[C@@H]1CO
29	-4	-6	2.6	O=C([C@H]1[C@H](CO)[C@H]2Cn3c(cccc3=O)[C@@H]1N2CC1CCCC1)N1CCc2ccccc2C1
30	-5	3	-8.6	CCCNC(=O)N1CC(=O)N2[C@@H](CO)[C@H](c3ccc(C#Cc4cccc(OC)c4)cc3)[C@@H]2C1

# Some of the entries so far, with values under each structure:
# The line under a structure holds: DUX4 inh	DUX4 inh difference	DUX4 inh control
(27) COCC(=O)Nc1ccc2c(c1)C(=O)N(C)[C@H]1CC[C@@H](CC(=O)O)O[C@H]1CO2
 : 1	0	1.1
(28) O=C(NC1Cc2ccccc2C1)[C@H]1N[C@H]2c3ccc(C4=CCCCC4)c(=O)n3C[C@H]2[C@@H]1CO
 : -3	-1	-2.3
(29) O=C([C@H]1[C@H](CO)[C@H]2Cn3c(cccc3=O)[C@@H]1N2CC1CCCC1)N1CCc2ccccc2C1
 : -4	-6	2.6

# Next section
no.	DUX4 inh	DUX4 inh difference	DUX4 inh control	canonical_smiles
31	10	6	4.0	CN1C[C@H](O)COC[C@H]2O[C@@H](CC(=O)N3CCN(c4ccccc4)CC3)CC[C@@H]21
32	3	6	-2.9	O=C(C[C@@H]1CC[C@@H]2[C@H](COC[C@H](O)CN2C(=O)Nc2cc(Cl)cc(Cl)c2)O1)NCC1CC1
33	-4	16	-19	CN1c2ccc(-c3cccc(F)c3)cc2[C@H]2[C@H](CCN2C(=O)C2CCC2)[C@@H]1CO
34	2	2	0.6	CCCNC(=O)[C@@H]1[C@@H](CO)[C@@H]2Cn3c(ccc(-c4cccc(OC)c4)c3=O)[C@@H]2N1Cc1nccs1
35	3	-1	3.7	COCC(=O)N1C[C@H]2[C@@H](c3ccccc31)[C@@H](CO)N2C(=O)C1CCOCC1
36	0	-2	1.1	CN(C)c1ccc2c(c1)[C@@H]1C[C@H](CC(=O)NCC3CC3)O[C@@H](CO)[C@@H]1O2
37	-3	5	-7.8	COc1ccc2c3c(n(C)c2c1)[C@@H](CO)N(C(C)=O)CC31CCN(C(=O)C2CCOCC2)CC1
38	?	.	.	C[C@H](NC(=O)C[C@@H]1CC[C@H]2[C@@H](COC[C@@H](O)CN2Cc2ccc(C(F)(F)F)cc2)O1)c1ccccc1
39	-3	1	-3.5	Cc1ccccc1S(=O)(=O)N1CC[C@H]2[C@@H](CO)N(C)c3ccc(Br)cc3[C@H]21
40	?	.	.	CCC(=O)N1CC2(CCN(Cc3ccc(Cl)cc3)CC2)c2c([nH]c3cc(OC)ccc23)[C@H]1CO
41	5	6	-1.7	CCC(=O)N1CC[C@@H]2[C@H]1c1cc(-c3cccc(F)c3)ccc1N(C)[C@H]2CO
42	-5	-10	5.5	CC(C)CC#Cc1ccc([C@H]2[C@@H](CO)N3C(=O)CN(C(=O)Nc4cc(F)ccc4F)C[C@@H]23)cc1
43	?	.	.	COc1ccc(CN2C[C@@H](C)[C@@H](OC)CN(C)C(=O)c3cc(NC(=O)c4nc5ccccc5s4)ccc3OC[C@H]2C)cc1
44	8	7	0.5	O=C(C[C@H]1CC[C@@H]2[C@H](COC[C@H](O)CN2Cc2ccccc2F)O1)NC1CCC1
45	-2	-9	6.5	CC[C@H]1CC=CC[C@@H](C)Oc2ccccc2C(=O)N(C)[C@H](C(C)C)C(=O)N1 (mixture of isomers)
46	7	5	2.1	C[C@H](CO)N1C[C@H](C)[C@H](CN(C)C(=O)Nc2cccc3ccccc23)Oc2ccc(NC(=O)CCC(F)(F)F)cc2CC1=O
47	?	.	.	COc1ccc2c3c(n(C)c2c1)[C@H](CO)N(Cc1cccc(Cl)c1)CC31CN(C(C)=O)C1
48	-2	-2	0.3	COc1cccc(-c2ccc3n(c2=O)C[C@@H]2[C@@H](CO)[C@H](C(=O)N(C)C)N(C(=O)C4CC4)[C@H]32)c1
49	0	-2	1.6	COc1ccccc1NC(=O)N[C@@H]1C=C[C@H](CC(=O)N[C@@H](C)c2ccccc2)O[C@@H]1CO
50	-3	0	-2.6	C/C=C/c1ccc([C@H]2[C@@H](CO)N(CC3CCCC3)[C@H]2CNS(C)(=O)=O)cc1
51	4	3	1.4	COc1cccc(NC(=O)N(C)C[C@H]2OCc3cn(nn3)CCCC(=O)N([C@@H](C)CO)C[C@H]2C)c1
52	12	16	-3.7	COc1ccc2c3c(n(C)c2c1)[C@@H](CO)N(C(=O)c1cnccn1)CC31CN(C(=O)c2ccncc2)C1
53	2	0	1.2	CCNC(=O)[C@@H]1[C@@H](CO)[C@@H]2Cn3c(ccc(-c4ccccc4)c3=O)[C@H]1N2Cc1ccccc1
54	0	0	0.1	CNC[C@H]1Oc2ccc(NS(=O)(=O)c3ccc(Cl)cc3)cc2CC(=O)N([C@@H](C)CO)C[C@@H]1C
55	-4	3	-6.4	O=C(C[C@@H]1CC[C@H](NS(=O)(=O)c2ccccc2)[C@@H](CO)O1)NCc1ccc(Cl)c(Cl)c1
56	-1	7	-8.8	C[C@@H]1CN([C@@H](C)CO)C(=O)CCCn2cc(nn2)CO[C@@H]1CN(C)Cc1cccc(C(F)(F)F)c1
57	?	.	.	COc1ccc(S(=O)(=O)N2CCCCN3[C@@H](CO)[C@H](c4ccc(C5=CCCC5)cc4)[C@@H]3C2)cc1
58	6	0	6.0	O=C(c1ccccc1)N1C[C@@H]2[C@H](c3ccccc31)[C@H](CO)N2Cc1cocn1
59	?	.	.	O=C(C[C@@H]1CC[C@@H]2[C@H](COC[C@@H](O)CN2Cc2nccs2)O1)NCc1ccc(Oc2ccccc2)cc1
60	5	4	0.6	COc1cccc(NC(=O)C[C@H]2CC[C@H]3[C@H](COc4ccc(NS(=O)(=O)c5cccc(F)c5)cc4C(=O)N3C)O2)c1

# Compound profiles, from the list above:
# Listed for O=C(C[C@@H]1CC[C@H](NS(=O)(=O)c2ccccc2)[C@@H](CO)O1)NCc1ccc(Cl)c(Cl)c1 = DUX4 inh = -4; DUX4 inh difference = 3; DUX4 inh control = -6.4
# Listed for COc1ccc2c3c(n(C)c2c1)[C@@H](CO)N(C(=O)c1cnccn1)CC31CN(C(=O)c2ccncc2)C1 = DUX4 inh = 12; DUX4 inh difference = 16; DUX4 inh control = -3.7

# (list continues)
no.	DUX4 inh	DUX4 inh difference	DUX4 inh control	canonical_smiles
61	-1	2	-2.8	Cc1ccc(S(=O)(=O)Nc2cccc3c2O[C@H](CN(C)C(=O)Nc2ccc(C(F)(F)F)cc2)[C@H](C)CN([C@H](C)CO)C3=O)cc1
62	-1	-1	0.2	COc1ccccc1-c1cnc2c(c1)C(=O)N([C@@H](C)CO)C[C@@H](C)[C@H](CN(C)C(=O)CC1CC1)O2
63	-1	0	-0.7	CN(Cc1cncnc1)C[C@@H]1N[C@H](CO)[C@@H]1c1ccc(-c2ccc(C#N)cc2)cc1
64	-4	-3	-1.5	O=C(O)[C@H]1[C@H](CO)[C@H]2Cn3c(ccc(C4=CCCCC4)c3=O)[C@H]2N1Cc1ccc2c(c1)OCO2
65	0	10	-9.6	O=C(C[C@@H]1CC[C@H](NS(=O)(=O)c2ccccc2)[C@H](CO)O1)NCc1ccc(Cl)c(Cl)c1
66	4	0	3.7	O=C(O)C[C@@H]1C[C@@H]2c3cc(NC(=O)Nc4ccc(C(F)(F)F)cc4)ccc3O[C@@H]2[C@H](CO)O1
67	1	5	-3.9	CS(=O)(=O)N1[C@H](C#N)[C@@H](c2ccc(C#Cc3cccc(F)c3)cc2)[C@H]1CO
68	0	3	-3.4	C[C@@H]1CN([C@H](C)CO)C(=O)CCCn2cc(nn2)CO[C@@H]1CN(C)C(=O)Nc1ccc(N2CCCCC2)cc1
69	-6	-2	-3.7	COc1ccc2c3c(n(C)c2c1)[C@@H](CO)N(C(=O)NC(C)C)CC31CCN(CC2CCCCC2)CC1
70	1	0	1.0	C[C@H](CO)N1C[C@H](C)[C@H](CN(C)S(C)(=O)=O)OCc2cn(nn2)CCCC1=O

# Four entries from above, with one line to a screen.
66: O=C(O)C[C@@H]1C[C@@H]2c3cc(NC(=O)Nc4ccc(C(F)(F)F)cc4)ccc3O[C@@H]2[C@H](CO)O1
70: C[C@H](CO)N1C[C@H](C)[C@H](CN(C)S(C)(=O)=O)OCc2cn(nn2)CCCC1=O
62: COc1ccccc1-c1cnc2c(c1)C(=O)N([C@@H](C)CO)C[C@@H](C)[C@H](CN(C)C(=O)CC1CC1)O2
61: Cc1ccc(S(=O)(=O)Nc2cccc3c2O[C@H](CN(C)C(=O)Nc2ccc(C(F)(F)F)cc2)[C@H](C)CN([C@H](C)CO)C3=O)cc1

entry no.,66,70,62,61
DUX4 inh,4,1,-1,-1
DUX4 inh difference,0,0,-1,2
DUX4 inh control,3.7,1.0,0.2,-2.8

# (list continues)
no.	DUX4 inh	DUX4 inh difference	DUX4 inh control	canonical_smiles
71	-4	-5	1.2	CN1C(=O)c2cc(NC(=O)c3ccccc3F)ccc2OC[C@@H]2O[C@@H](CC(=O)NCc3ccc4c(c3)OCO4)CC[C@H]21
72	?	.	.	COc1ccccc1-c1ccc2c(c1)[C@H]1[C@H](CCN1Cc1ccccc1F)[C@@H](CO)N2
73	2	3	-1.3	CNC(=O)C[C@@H]1CC[C@@H]2[C@@H](COc3ccc(NC(=O)c4ccccc4Cl)cc3C(=O)N2C)O1
74	-1	-2	0.5	C[C@H]1CCCCO[C@H](CN(C)C(=O)c2ccccc2)[C@@H](C)CN([C@@H](C)CO)C(=O)c2cc(NS(=O)(=O)c3ccc(F)cc3)ccc2O1
75	0	1	-0.5	C[C@@H]1CN([C@H](C)CO)C(=O)CCCn2cc(nn2)CO[C@H]1CN(C)C(=O)Nc1ccc2c(c1)OCO2
76	-7	-7	-0.3	C[C@@H]1CC=CC[C@@H](c2cccc(Cl)c2)NC(=O)[C@@H](C)N(C)C(=O)c2ccccc2O1 (mixture of isomers)

# Bioassay records as filed in PubChem BioAssay.
